High-throughput results from PubChem BioAssay.
H5N1 CPE = MDCK cell protection from H5N1 avian flu; 0.07% of 96,000 active; inhibition, % at 50 µM; cytopathic effect, luminescence, 72 h; active compounds read high; no value below 0 was filed and about half of the inactive calls have no number; reference of the scale not given here; in the data active means inhibition above about 25%
Numbers without * were called inactive; i = inactive. The list is partial, so the mix of outcomes need not match the whole.

SMILES	H5N1 CPE
Cc1cc(=O)oc2cc(NC(=O)C3COc4ccccc4O3)ccc12 (configuration not stated)	i
COc1ccc(NC(=O)C2CCCCN2S(=O)(=O)c2ccc(F)cc2)cc1 (configuration not stated)	4.0
Cc1ccc(C(=O)N2CCN3C(=O)c4ccccc4C23c2ccc(Cl)cc2)cc1 (configuration not stated)	5.1
Cc1ccc2[nH]c(=O)c(CN(Cc3cccs3)Cc3nnnn3CC3CCCO3)cc2c1 (configuration not stated)	i
CCN(CC)S(=O)(=O)c1cccc(C(=O)Nc2ccc(Cl)cn2)c1	1.1
CCC(c1nnc(SCC(=O)NCCc2ccc(Cl)cc2Cl)o1)N(C)C (configuration not stated)	3.3
CCOC(=O)CC(=O)Nc1nnc(C(C)C)s1	0.4
Cc1ccccc1N1C(=O)C2ON(c3ccccc3)C(c3cccnc3)C2C1=O (configuration not stated)	i
Oc1cccc(Nc2nc(NCC3CCCO3)c3ccccc3n2)c1 (configuration not stated)	i
Cc1ccc(C(=O)COC(=O)C2CC(=O)N(c3nc(-c4ccccc4)cs3)C2)cc1C (configuration not stated)	i
CN1CCN(S(=O)(=O)c2ccc(N3CCN(S(=O)(=O)c4cccs4)CC3)nc2)CC1	i
Cn1c(CNS(=O)(=O)c2ccc(Br)cc2)n[nH]c1=S	0.9
CCN(CC)CCN1C(=O)C(=O)/C(=C(/O)c2c(C)[nH]c(C(=O)OC)c2C)C1c1ccco1 (configuration not stated)	0.0
Nn1c(SCc2nc3ccccc3[nH]2)nnc1-c1cccnc1	i
COc1ccc(C(=O)Cc2ccc(OC)c(OC)c2)cc1	i
CCCCn1c2nc3ccccc3nc2c2c(=O)n(CCC)cnc21	1.9
O=C(NC1CCCCC1NC(=O)c1cccs1)c1cccs1 (configuration not stated)	i
CC(C)C(=O)N1CCC(CN=Cc2c(O)n(C3CCCCC3)c(=O)n(C3CCCCC3)c2=O)CC1	i
COc1cc2[nH]c(=O)n(CCC(=O)N3CCN(c4cccc(C)c4C)CC3)c(=O)c2cc1OC	i
Cc1nc(-c2ccccc2)nc2[nH]c(C(C)C)cc(=O)c12	2.3
Cc1ccc(CNC(=O)Cn2cncn2)cc1	0.6
CCSCc1nnc(SCC(=O)Nc2cccc(SC)c2)n1C	i
S=c1[nH]nc(CSc2nc3ccccc3s2)n1Cc1ccccc1	0.9
COc1ccc(-c2nnc(NC(=O)C(C)C)o2)cc1	0.9
CC1(C)CC(=O)c2cnc(N3CCN(c4ccccc4)CC3)nc2C1	0.2
SMILES	H5N1 CPE
Cc1c(-c2ccccc2)cn2c1-c1ccc(C)n1CC2	1.7
CCOc1ccc(N2C(=O)CSC23CCCCC3)cc1	1.2
CC(C)(C)S(=O)c1cccs1 (configuration not stated)	i
N#CC1=C(N)N(c2ccc(Oc3ccccc3)cc2)C(=O)C1	i
O=C(CSc1nnc(Cc2cccs2)n1C1CCCCC1)N1CCCc2ccccc21	i
Brc1cc2c(cc1/C=N/Nc1nc3ccccc3s1)OCO2	i
COc1ccc(C(=O)C(OC(=O)c2ccccc2)c2ccccc2)cc1 (configuration not stated)	i
COc1ccc(NC(=O)CSc2nnc(N)s2)cc1	i
Cc1onc(-c2ccccc2)c1C(=O)n1nnc2ccccc21	0.5
C=C(C)Cn1c(SCCCO)nc2c1c(=O)[nH]c(=O)n2C	i
Cc1ccc2[nH]c3c(N4CCOCC4)ncnc3c2c1	1.6
CCOC(=O)c1ccc(NC(=O)CCC2COc3ccccc3O2)cc1 (configuration not stated)	0.9
N#CCCN/N=C(\Cc1nc2ccccc2[nH]1)c1ccccc1	0.7
CCC(Sc1ncccc1C(=O)O)C(=O)N1CCCC1 (configuration not stated)	i
Cc1ccc(NCC(=O)c2ccccc2)cc1Cl	i
Cc1cccc2cc(CN(Cc3ccc4c(c3)OCO4)Cc3nnnn3C3CCCC3)c(=O)[nH]c12	0.4
O=C(CSc1nccn1-c1ccccc1)c1ccc(Cl)cc1	i
CCN(CCCNC(=O)C1CCN(S(=O)(=O)CC)CC1)c1cccc(C)c1	i
CCc1ccc(NC(=O)N(CCCOC(C)C)C2CCN(C(C)=O)CC2)cc1	i
CSCC[C@H](NC(=O)OC(C)(C)C)C(=O)N1CCC(C(=O)N[C@@H](C)C(=O)O)CC1	i
Cc1csc(NC(=O)c2ccc(C)c(S(=O)(=O)N3CCCCC3)c2)n1	1.9
COc1ccc(C2C(C(=O)N3CCN(c4ccccc4)CC3)c3ccccc3C(=O)N2C)cc1OC (configuration not stated)	0.6
COc1ccc(/C=N/N2CCN(c3ccccc3OC)CC2)cc1OC	i
CC(=O)c1ccc(OC(=O)C2CC(=O)N(c3cccc(C)c3)C2)cc1 (configuration not stated)	0.6
Cc1cc2c(c(=O)n1Cc1cccnc1)C(c1ccccc1)C(C#N)=C(N)O2 (configuration not stated)	1.1
SMILES	H5N1 CPE
CCOc1ccc(C(=O)Nc2ccc(N3CCN(C)CC3)cc2)cc1Br	i
CSc1nnc2c3cc(C)ccc3n(Cc3ccccc3)c2n1	0.6
Cc1ccc(NC(=O)N/C=C/c2ccco2)cc1	0.6
Cc1ccc(C2CC(c3ccccc3)=NN2C(=O)CSc2nnc(-c3ccc(Cl)cc3)o2)o1 (configuration not stated)	0.5
CCCCCCc1ccc(OCC(=O)OC)cc1OCC(=O)OC	i
N#CC1=C(N)Oc2n[nH]c(-c3cccs3)c2C1c1cccs1 (configuration not stated)	i
CC(=O)NN1C(=O)/C(=C\c2ccccc2)SC1=S	i
Cn1ccnc1C(=O)c1cc(=O)c2ccccc2o1	0.3
Cc1cccc(N2CCN(C(=O)c3cc4n(n3)C(C(F)(F)F)CC(c3ccco3)N4)CC2)c1C (configuration not stated)	2.1
Oc1cccc(C=NCc2ccccc2)c1	i
Cc1nnc(N/N=C/c2cc([N+](=O)[O-])c(N3CCC(C)CC3)cc2N2CCC(C)CC2)n1N	4.0
CN1C(=O)CC(C(=O)Nc2ccc(F)cc2)SC1=Nc1ccc2c(c1)OCO2 (configuration not stated)	1.7
O=C(OCCN1CCCC1=O)c1cncc(Br)c1	1.1
CCOC(=O)c1nn(-c2ccccc2C)c(=O)c(C#N)c1C	0.8
N#CC(C#N)=c1ccc2c(c1)NC1(CCCCC1)N=2	i
CCOC(=O)CNC(=O)c1nn(-c2cccc(OC)c2)c(=O)c2ccccc12	0.2
CC(C)(C)c1ccc(C(=O)NNC(=O)C(=O)N2CCCCC2)cc1	0.1
CC1S/C(=C(\C#N)C(=O)NCc2ccco2)N(Cc2ccco2)C1=O (configuration not stated)	2.0
CCOC(=O)C1CCN(c2cc(=O)n(C3CCCCC3)c(=O)[nH]2)CC1	i
N#CC1=C(N)Oc2n[nH]c(-c3cccs3)c2C1c1ccco1 (configuration not stated)	i
C=CCn1cc(-c2cccc(Cl)c2)cc(C#N)c1=O	0.7
CCN(C(=O)CN1CCN(c2ccccc2)CC1)c1c(N)n(Cc2ccccc2)c(=O)[nH]c1=O	i
CCn1c(C)c(C(=O)O)c2cc(OC)ccc21	i
COc1ccc(OC)c(C2C(C(=O)Nc3ccc(F)cc3)=C(C)Nc3nc(CCCO)nn32)c1 (configuration not stated)	0.3
Cc1ccc(C(=O)OC2CCS(=O)(=O)c3sccc32)cc1 (configuration not stated)	i

An excerpt from the list above, for reference:
SMILES	H5N1 CPE
N#CC1=C(N)Oc2n[nH]c(-c3cccs3)c2C1c1cccs1 (configuration not stated)	i
CC(=O)NN1C(=O)/C(=C\c2ccccc2)SC1=S	i
Cn1ccnc1C(=O)c1cc(=O)c2ccccc2o1	0.3
Cc1cccc(N2CCN(C(=O)c3cc4n(n3)C(C(F)(F)F)CC(c3ccco3)N4)CC2)c1C (configuration not stated)	2.1
Oc1cccc(C=NCc2ccccc2)c1	i
Cc1nnc(N/N=C/c2cc([N+](=O)[O-])c(N3CCC(C)CC3)cc2N2CCC(C)CC2)n1N	4.0
CN1C(=O)CC(C(=O)Nc2ccc(F)cc2)SC1=Nc1ccc2c(c1)OCO2 (configuration not stated)	1.7
O=C(OCCN1CCCC1=O)c1cncc(Br)c1	1.1
CCOC(=O)c1nn(-c2ccccc2C)c(=O)c(C#N)c1C	0.8
N#CC(C#N)=c1ccc2c(c1)NC1(CCCCC1)N=2	i
CCOC(=O)CNC(=O)c1nn(-c2cccc(OC)c2)c(=O)c2ccccc12	0.2
CC(C)(C)c1ccc(C(=O)NNC(=O)C(=O)N2CCCCC2)cc1	0.1
CC1S/C(=C(\C#N)C(=O)NCc2ccco2)N(Cc2ccco2)C1=O (configuration not stated)	2.0
CCOC(=O)C1CCN(c2cc(=O)n(C3CCCCC3)c(=O)[nH]2)CC1	i
N#CC1=C(N)Oc2n[nH]c(-c3cccs3)c2C1c1ccco1 (configuration not stated)	i
C=CCn1cc(-c2cccc(Cl)c2)cc(C#N)c1=O	0.7
CCN(C(=O)CN1CCN(c2ccccc2)CC1)c1c(N)n(Cc2ccccc2)c(=O)[nH]c1=O	i
CCn1c(C)c(C(=O)O)c2cc(OC)ccc21	i

The listing picks up, starting 2 compounds before the break.
SMILES	H5N1 CPE
COc1ccc(OC)c(C2C(C(=O)Nc3ccc(F)cc3)=C(C)Nc3nc(CCCO)nn32)c1 (configuration not stated)	0.3
Cc1ccc(C(=O)OC2CCS(=O)(=O)c3sccc32)cc1 (configuration not stated)	i
CN(CC(=O)Nc1ccccc1Br)Cc1nc2ccccc2c(=O)[nH]1	0.5
Cc1ccc(SCC(=O)NCCC2=CCCCC2)cc1	1.0
Cc1nn(Cc2ccccc2)c2c1C(c1ccco1)C(C#N)=C(N)O2 (configuration not stated)	i
COCCn1cnnc1SCC(=O)c1ccc(S(=O)(=O)N2CCCC2)cc1	0.3
Cc1cc(=O)oc2cc(OCC3CC(c4ccc(Br)cc4)=NO3)ccc12 (configuration not stated)	i
Cc1ccc(C)c(NC(=O)c2ccc(OC(=O)c3ccco3)cc2)c1	2.3
CSc1cccc(NC(=O)Nc2ccccc2)c1	i
CCN(CC)CCNC(=O)Cn1nc(Cc2cccnc2)c2ccccc2c1=O	0.4
O=C(c1ccccc1)c1c[nH]c(C(=O)NCCCn2ccnc2)c1	i
O=C1c2ccccc2NC(c2cnc3ccccc3n2)N1O (configuration not stated)	i
CCC(=O)c1ccc(OCC(O)CN2CCCCC2)cc1 (configuration not stated)	0.4
O=C(CCl)Oc1ccc2occ(C(=O)c3cccs3)c2c1	i
CCOc1cc(CNCc2ccccn2)ccc1OCC(=O)NC1CCCCC1	0.2
COc1cccc(NC(=O)C2CC(=O)N=C(N)S2)c1 (configuration not stated)	0.3
O=C(CCS(=O)(=O)Cc1ccccc1)NCc1ccco1	i
C=CCOC(=O)C1=C(C)NC(SCC(=O)NC(=O)OCC)=C(C#N)C1c1cccnc1 (configuration not stated)	1.4
CCOC(=O)C1=C(C)C(c2ccccc2O)NC(=O)N1 (configuration not stated)	i
O=C(Oc1cccc(N2C(=O)CCC2=O)c1)C1CC(=O)N(c2ccc(Br)cc2)C1 (configuration not stated)	0.7
O=C1CC(c2ccccc2)Cc2nc3nc(C(F)(F)F)nn3cc21 (configuration not stated)	1.5
CCCOc1ccc(Cn2c(O)cc(=O)[nH]c2=O)cc1	i
O=S1(=O)N=C(N2CCc3ccccc3C2)c2ccccc21	i
COc1ccc(-c2cc(=Nc3ccc(C)cc3)c3ccccc3o2)cc1	i
Cn1c(=O)oc2cc(S(=O)(=O)N3CCN(c4cccc(Cl)c4)CC3)ccc21	0.3
Cc1oc2c(c1C(=O)Nc1cccc(C(=O)O)c1)CCCC2	0.5
O=c1c2c3c(sc2nc2sc(C4CC4)nn12)CCCC3	i
SMILES	H5N1 CPE
CC(C)Oc1ccc(CNC(=O)Cn2c(=O)oc3ccccc32)cc1	0.8
CCCC(=O)Nc1nc(C(=O)OCC)cs1	i
O=C(COc1ccc(-n2cnnn2)cc1)N1CCN(c2ccc(F)cc2)CC1	0.1
COCCCNC(=O)C1CC(=O)N(C2CCCC2)C1 (configuration not stated)	0.5
COc1cccc(NC(=O)C2C3CC4OC(=O)C2C4C3)c1 (configuration not stated)	i
COc1ccc(C2C=C(c3ccccc3)Nc3nc(CCCO)nn32)cc1 (configuration not stated)	0.8
CC(C)CCOCC(=O)Nc1cccc(C(=O)O)c1	0.2
COc1cccc(-c2nnc(SCC(=O)N(C(C)C)C(C)C)o2)c1	0.1
Cc1ccc(CS(=O)(=O)Cc2ccc(C(=O)NCc3ccco3)o2)cc1	0.4
Cc1cc(C(=O)COC(=O)c2n[nH]c3ccccc23)c(C)n1C	0.5
COC(=O)c1cc(NC(=O)CC2SCCNC2=O)cc(C(=O)OC)c1 (configuration not stated)	2.2
CCn1nnc2sc3c(c2c1=O)CCC(C)C3 (configuration not stated)	0.8
CCc1cc2cc(C)cc(C)c2nc1SCC(=O)N1CCN(C(=O)c2ccco2)CC1	0.6
O=C(CCN1CCc2ccccc2C1)Nc1cccc(F)c1	i
CCOC(=O)Cn1c(SC)nc2sc3c(c2c1=O)CC(C)(C)OC3	i
FC(F)(F)c1cnc2c(c1)Nc1ccccc1S2	1.1
COc1ccc(/C=C/C(=O)Oc2cccc(/C=N/NC(=O)c3cccc(F)c3)c2)cc1	i
COCCNC(=O)C1CC(=O)N(CCc2ccccc2)C1 (configuration not stated)	0.6
O=C(CN1CCSCC1)N/N=C/c1ccc(F)cc1F	0.7
CC(C)(C)NCCCCOc1ccccc1F	0.1
Cc1nnc(NC(=O)C2(c3ccccc3)CCOCC2)s1	0.8
NC(=O)CSc1nnc(-c2cccc(S(=O)(=O)N3CCOCC3)c2)n1C1CCCCCC1	2.4
CCC(CO)NCCNC(CC)CO (configuration not stated)	0.3
CCCOC(=O)Nc1cc(OC)c(Cl)cc1OC	i
O=C(COC(=O)C1=COCCO1)Nc1ncc(C(F)(F)F)cc1Cl	0.2
SMILES	H5N1 CPE
COc1ccc(OC)c(S(=O)(=O)NCCc2cn3ccsc3n2)c1	1.4
Cc1ccc(S(=O)(=O)N2CCCOC2)cc1	i
c1cc2[nH]snc2c2nc(C3CC3)nc12	6.1
Oc1c(C(c2ccccc2)N2CCc3ccccc3C2)sc2ncnn12 (configuration not stated)	i
COC(=O)NC1(C(F)(F)F)NC(=O)N(C2CCCCC2)C1=O (configuration not stated)	i
COCCCNC(=O)c1c(NC(=O)c2cccs2)sc2c1CCCC2	i
COc1ccc(S(=O)(=O)NCCc2csc(-c3cccnc3)n2)cc1	0.7
Cc1ccc2nc(-c3ccc(NC(=S)NC(=O)C(C)C)cc3)sc2c1	i
